NPYLR7 agonist: agonists of mosquito NPYLR7 receptor, primary screen, cell-based, Aedes aegypti, calcium fluorescence, mosquito biting behavior. 0.15% of 270,000 active. AID 1259423, 2018. activation, % at 10 µM. Aedes aegypti neuropeptide Y-like receptor 7 (NPYLR7). HEK293T NPYLR7/Galpha15, GCaMP6s calcium fluorescence; in the data active means activation above about 40%;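 further: 0% = vehicle and 100% = reference agonist at the receptor; some compounds past the cut are filed as inactive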
NPYLR7 agonist max-min: second read-out of NPYLR7 agonist, no call of its own (marks repeat the call); activation, %; measured here: Max-Min RFU normalised activation; some inactives read as strong as hits;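 span of the calcium signal over five minutes; 0% = vehicle and 100% = native peptide agonist; compound fluorescence can raise it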
* marks the source's active call; other numbers are inactive results; & = joins results of further samples. A portion of the library (hit frequency here may not be typical).

`COc1ccc(F)cc1-c1nccn1CC(OC)c1cccs1` (configuration not stated) gave NPYLR7 agonist 5 and NPYLR7 agonist max-min 1.
For COC(=O)CN1C(=O)CNC12CCN(C(=O)c1ccc(-n3cccc3)nc1)CC2 the results were NPYLR7 agonist -1 and NPYLR7 agonist max-min 29.
Screening CC(C)CN1C(=O)C(c2c(C(C)C)[nH]n(-c3ccc(Cl)cc3)c2=O)=C([n+]2ccccc2)C1=O returned NPYLR7 agonist 10 and NPYLR7 agonist max-min 22.
`CC(=O)C(C)n1c(=O)c2c(nc3n(CCc4ccccc4)c(C)c(C)n23)n(C)c1=O` (configuration not stated) gave NPYLR7 agonist 1 and NPYLR7 agonist max-min -4.
COC(=O)C(C)Sc1ccc2nnc(-c3cccnc3)n2n1 (configuration not stated) was read as NPYLR7 agonist -4 and NPYLR7 agonist max-min -4.
`CC(C)CNC(=O)c1cn(Cc2ccc(F)cc2)nc1OCc1ccc(F)cc1` gave NPYLR7 agonist 10 and NPYLR7 agonist max-min 6.
Cc1ccnn1-c1ccc(C(=O)N(C)CC(N)=O)cc1 was read as NPYLR7 agonist -4 and NPYLR7 agonist max-min -7.
`CN(C)C1CCCCC1NS(=O)(=O)c1ccccc1` (configuration not stated) gave NPYLR7 agonist -2&-2 and NPYLR7 agonist max-min -11&1.
For CCCc1noc2ncc(C(=O)NC3CCN(C)C3)cc12 (configuration not stated) the results were NPYLR7 agonist 5 and NPYLR7 agonist max-min 4.
For Cc1cccc(SC2CCN(Cc3ccccc3C(=O)O)CC2)c1 the results were NPYLR7 agonist 4 and NPYLR7 agonist max-min -1.
For COc1ccnc(C(=O)NC2(c3noc(C4CCCO4)n3)CCCCCC2)c1 (configuration not stated) the results were NPYLR7 agonist 2 and NPYLR7 agonist max-min -1.
Screening Cc1ccc(CC2(NC(=O)c3ccoc3C)CC2)cc1 returned NPYLR7 agonist -3 and NPYLR7 agonist max-min -3.
`CN(Cc1ccc2nsnc2c1)C(=O)c1ccccc1-n1cncn1` gave NPYLR7 agonist 27 and NPYLR7 agonist max-min 21.
`O=C(c1ccc2c(c1)OCO2)N1CCC(C2(Cc3ccc(F)cc3)NC(=O)N(CC3CC3)C2=O)CC1` (configuration not stated) gave NPYLR7 agonist 8 and NPYLR7 agonist max-min 2.
CSCCC1NC(=S)N(CCNC(=O)c2ccc(C)c(F)c2)C1=O (configuration not stated) was read as NPYLR7 agonist 11 and NPYLR7 agonist max-min 10.
For COc1cccc(COc2coc(C(=O)NC3CC3)cc2=O)c1 the results were NPYLR7 agonist 2 and NPYLR7 agonist max-min 2.
For C=c1c2c(oc1=C1N=C(C(C)(C)OC)NO1)CCCC2=O the results were NPYLR7 agonist 9 and NPYLR7 agonist max-min 275.
Screening C=CCn1c(=O)c2c(nc3n2CC(C)=NN3CCCc2ccccc2)n(C)c1=O returned NPYLR7 agonist 3 and NPYLR7 agonist max-min -1.
Screening COc1cc(C)c(C)cc1S(=O)(=O)NCCOc1ccc(-c2ccc(C)cc2)nn1 returned NPYLR7 agonist -6 and NPYLR7 agonist max-min -13.
CCOc1ccc(-c2nc(Cn3nnc(C(=O)Nc4ccc(F)c(F)c4)c3C)c(C)o2)cc1 was read as NPYLR7 agonist -1 and NPYLR7 agonist max-min -3.

The last 3 compounds of the section above come first, to join the parts:
Screening C=CCn1c(=O)c2c(nc3n2CC(C)=NN3CCCc2ccccc2)n(C)c1=O returned NPYLR7 agonist 3 and NPYLR7 agonist max-min -1.
Screening COc1cc(C)c(C)cc1S(=O)(=O)NCCOc1ccc(-c2ccc(C)cc2)nn1 returned NPYLR7 agonist -6 and NPYLR7 agonist max-min -13.
CCOc1ccc(-c2nc(Cn3nnc(C(=O)Nc4ccc(F)c(F)c4)c3C)c(C)o2)cc1 was read as NPYLR7 agonist -1 and NPYLR7 agonist max-min -3.
For CC(=O)N1CCN(CC(=O)c2cc(C)n(-c3ccccc3)c2C)CC1 the results were NPYLR7 agonist -3 and NPYLR7 agonist max-min -3.
Cc1cc2nc(N3CCCN(Cc4cccc5cccnc45)CC3)nc(C)c2cc1C was read as NPYLR7 agonist 27 and NPYLR7 agonist max-min 11.
Screening CC1CCN(c2ccc(NC(=O)C(C)Cl)cc2C(=O)N2CCCC2)CC1 (configuration not stated) returned NPYLR7 agonist 18 and NPYLR7 agonist max-min 21.
CC(NC(=O)NC(C)c1ccncc1)C(=O)N1CCCCC1C (configuration not stated) was read as NPYLR7 agonist 3 and NPYLR7 agonist max-min 1.
`CCOc1ccc(NC(=O)N2CCC[C@H]2C(=O)N2CCC(C(=O)N3CCOCC3)CC2)cc1` gave NPYLR7 agonist -6 and NPYLR7 agonist max-min 8.
CCOC(=O)C1CCCN(C(=O)c2nn(-c3cccc(OC)c3)c(=O)n(Cc3ccc(F)cc3)c2=O)C1 (configuration not stated) was read as NPYLR7 agonist -6 and NPYLR7 agonist max-min 1.
For Cn1nc(C(=O)Nc2cc(-c3c(F)cccc3F)[nH]n2)ccc1=O the results were NPYLR7 agonist -3 and NPYLR7 agonist max-min -5.
CNCc1cc(-c2ccccc2F)n(S(=O)(=O)c2cccnc2)c1 was read as NPYLR7 agonist 1 and NPYLR7 agonist max-min -5.
Screening O=S(=O)(c1cccc(Cl)c1Cl)N1CCCC2(CCNC2)C1 (configuration not stated) returned NPYLR7 agonist 4 and NPYLR7 agonist max-min 2.
`CN(C)CCCN(C(=O)c1ccc([N+](=O)[O-])o1)c1nc2cc3c(cc2s1)OCO3` gave NPYLR7 agonist 2 and NPYLR7 agonist max-min -1.
CC(C)N(CC(=O)N1CCc2sccc2C1c1ccc(F)cc1)C(=O)c1ccccc1Cl (configuration not stated) was read as NPYLR7 agonist 19 and NPYLR7 agonist max-min 16.
For CN(Cc1ccccc1)c1ccc(-c2cccc(C(=O)NNc3ccccn3)c2)nn1 the results were NPYLR7 agonist -5 and NPYLR7 agonist max-min -6.
C=CCc1cccc2cc(C(=O)Nc3cccc(Cl)c3)c(=O)oc12 was read as NPYLR7 agonist -5 and NPYLR7 agonist max-min -12.
CCOc1ccc(-c2ccnc(N3CCN(C(=O)C(C)(C)C)CC3)n2)cc1 was read as NPYLR7 agonist -8 and NPYLR7 agonist max-min -8.
For Cc1cccc(Nc2nc(NCC3CCCO3)nc3c2cnn3-c2ccccc2)c1 (configuration not stated) the results were NPYLR7 agonist 0 and NPYLR7 agonist max-min 1.
COc1cccc(CC2(CO)CCN(C(=O)c3cc4cc(F)ccc4[nH]3)CC2)c1 was read as NPYLR7 agonist 3 and NPYLR7 agonist max-min 0.
`CCCc1nc(N(C)CCc2noc(C(C)C)n2)c2cnn(C)c2n1` gave NPYLR7 agonist -1 and NPYLR7 agonist max-min -4.
Screening CCn1c(CNC(=O)C23CC4CC(CC(C4)C2)C3)nnc1SC(C)C returned NPYLR7 agonist -2 and NPYLR7 agonist max-min -3.
`O=[N+]([O-])c1c(NCc2ccccc2)cc(N2CCOCC2)c2nonc12` gave NPYLR7 agonist -10 and NPYLR7 agonist max-min -17.
Screening CC(C)NS(=O)(=O)c1cc(C(=O)O)cc(-c2ccc(CN(C)C)cc2)c1 returned NPYLR7 agonist 5 and NPYLR7 agonist max-min 3.

Four structures already listed, ordered by heavy-atom count, low to high.
Screening CCn1c(CNC(=O)C23CC4CC(CC(C4)C2)C3)nnc1SC(C)C returned NPYLR7 agonist -2 and NPYLR7 agonist max-min -3.
COc1cccc(CC2(CO)CCN(C(=O)c3cc4cc(F)ccc4[nH]3)CC2)c1 was read as NPYLR7 agonist 3 and NPYLR7 agonist max-min 0.
CC(C)N(CC(=O)N1CCc2sccc2C1c1ccc(F)cc1)C(=O)c1ccccc1Cl (configuration not stated) was read as NPYLR7 agonist 19 and NPYLR7 agonist max-min 16.
CCOC(=O)C1CCCN(C(=O)c2nn(-c3cccc(OC)c3)c(=O)n(Cc3ccc(F)cc3)c2=O)C1 (configuration not stated) was read as NPYLR7 agonist -6 and NPYLR7 agonist max-min 1.

Next entries follow:
O=c1[nH]c2cc([N+](=O)[O-])ccc2nc1N1CCCC1 was read as NPYLR7 agonist 1 and NPYLR7 agonist max-min 4.
`O=C(CCCl)Nc1ccc(Br)cc1F` gave NPYLR7 agonist -1 and NPYLR7 agonist max-min -3.
Screening CNC(=O)c1ccccc1NC(=O)c1nc(Cl)c(Cl)c(Cl)c1Cl returned NPYLR7 agonist 8 and NPYLR7 agonist max-min 7.
`Cc1ccccc1-c1nc(OCC(C)C)nn1-c1ccc(NC(=O)COc2ccccc2)cc1` gave NPYLR7 agonist 25 and NPYLR7 agonist max-min 17.
`Cc1cc(C(=O)N2CCC3(CCCO3)CC2)cc2sc(N)nc12` gave NPYLR7 agonist 7 and NPYLR7 agonist max-min 5.
C=CCN1C(=O)NC(c2cccc(Cl)c2)C2=C1CN(CC(=O)NCCCOC)C2=O (configuration not stated) was read as NPYLR7 agonist -2 and NPYLR7 agonist max-min 4.
Screening COCCNC(=O)CN1CCN(C(=O)c2cn(C(C)C)cc3c(=O)n(-c4ccccc4)nc2-3)CC1 returned NPYLR7 agonist -6 and NPYLR7 agonist max-min -8.
For C=CCN(CC(=O)N1CCc2sccc2C1c1ccc(Cl)cc1Cl)C(=O)COc1ccccc1 (configuration not stated) the results were NPYLR7 agonist -4 and NPYLR7 agonist max-min 4.
`c1ccc(C2c3[nH]c4ccccc4c3CCN2Cc2ccc(Oc3ncccn3)cc2)nc1` (configuration not stated) gave NPYLR7 agonist 4 and NPYLR7 agonist max-min 1.
COC(=O)c1cccc(CSc2nnc(-c3ccc(OC)cc3)n2-c2ccc(Cl)c(Cl)c2)c1 was read as NPYLR7 agonist 0 and NPYLR7 agonist max-min 2.
For c1csc(CNc2ccc3ncc(-c4cccc5ccccc45)n3n2)c1 the results were NPYLR7 agonist -6 and NPYLR7 agonist max-min -9.
Screening CCCCN1CCCCC1(C)C(=O)NCc1ccc2c(c1)CCO2 (configuration not stated) returned NPYLR7 agonist -9 and NPYLR7 agonist max-min -8.
CC1CN(C(=O)c2cc(-c3ccccc3Cl)n[nH]2)C(C)CO1 (configuration not stated) was read as NPYLR7 agonist 2 and NPYLR7 agonist max-min 15.
Screening CCCc1cc(-n2nc(C)cc2C)n2ncc(-c3ccccc3)c2n1 returned NPYLR7 agonist -3 and NPYLR7 agonist max-min -5.
`O=C(NCc1ccc(C(F)(F)F)cc1)c1cn(CCCc2ccccc2)nn1` gave NPYLR7 agonist 9 and NPYLR7 agonist max-min 6.
For CC(C)CNc1ccc2c(n1)C(=O)N([C@H](C)C(=O)NCCN(C)C)C2 the results were NPYLR7 agonist 4 and NPYLR7 agonist max-min 0.
Screening CCn1c(SCC(=O)Nc2cc(C)nn2C)nnc1-c1ccco1 returned NPYLR7 agonist 2 and NPYLR7 agonist max-min 1.
For COc1ccc(C=CC(=O)Nc2nnc(C3CC3)s2)c(OC)c1 the results were NPYLR7 agonist 8 and NPYLR7 agonist max-min 3.
Screening COc1ccc(/C=N\N2C(=O)c3cccc4c(N5CCOCC5)ccc(c34)C2=O)cc1 returned NPYLR7 agonist -6 and NPYLR7 agonist max-min -7.
For O=[N+]([O-])c1cc(S(=O)(=O)N2CCCN(c3nc(Cc4ccc(F)cc4)ns3)CC2)ccc1Cl the results were NPYLR7 agonist 19 and NPYLR7 agonist max-min 13.
Screening Cc1cccc(N2CCC(NC(=O)CCn3nnnc3CN3CCOCC3)CC2)c1 returned NPYLR7 agonist 0&-3 and NPYLR7 agonist max-min -2&-3.
`COC1(OC)N=C(N)C2(C#N)C(c3cccc(F)c3)C12C#N` (configuration not stated) gave NPYLR7 agonist 1 and NPYLR7 agonist max-min -4.
For O=C(Cn1cnc([N+](=O)[O-])n1)Nc1cccc(C(F)(F)F)c1 the results were NPYLR7 agonist -10 and NPYLR7 agonist max-min -19.
Screening CC(=O)Nc1cccc(-c2cccc(-n3cnnc3)c2)c1 returned NPYLR7 agonist 22 and NPYLR7 agonist max-min 8.
Screening Cc1ccn(-c2ccc(Nc3ccc(NC(=O)C4CCCO4)cc3)nn2)n1 (configuration not stated) returned NPYLR7 agonist -3 and NPYLR7 agonist max-min -8.
Screening CC(C)C(NC(=O)c1cccc2c1OCC2)c1nnc2n1CCNCC2 (configuration not stated) returned NPYLR7 agonist 1 and NPYLR7 agonist max-min -2.
Screening Cc1ncsc1COC(=O)CN1CCCOC1=O returned NPYLR7 agonist 2 and NPYLR7 agonist max-min -1.
N=C1C(=P(c2ccccc2)(c2ccccc2)c2ccccc2)C(=O)CN1Cc1ccccc1 was read as NPYLR7 agonist -5 and NPYLR7 agonist max-min -9.
Screening CC(C)(C)NC(=O)[C@@H]1CCCC[C@@H]1C(=O)NCCS(C)(=O)=O returned NPYLR7 agonist -1 and NPYLR7 agonist max-min -5.
For CCOC(=O)C1(Cc2cccc(OC)c2)CCN(CC2CC=CCC2)CC1 (configuration not stated) the results were NPYLR7 agonist 3&13 and NPYLR7 agonist max-min 1&15.
For Cc1ccc(S(=O)(=O)N(Cc2nccn2Cc2cccc(C)c2)CC(C)C)cc1 the results were NPYLR7 agonist -12 and NPYLR7 agonist max-min -5.
`CC(C)CN(CC(=O)N(Cc1ccc2c(c1)OCO2)Cc1ccco1)C(=O)/C=C/c1ccc([N+](=O)[O-])cc1` gave NPYLR7 agonist 24 and NPYLR7 agonist max-min 29.
Cc1ccc(NS(=O)(=O)c2sc(C)nc2C)nc1 was read as NPYLR7 agonist 0&2 and NPYLR7 agonist max-min -2&3.
CC(=O)N(CN1C(=O)c2ccc([N+](=O)[O-])cc2C1=O)c1ccc(F)cc1 was read as NPYLR7 agonist 4 and NPYLR7 agonist max-min 3.
For CCOC(=O)c1ccccc1NC(=O)Cn1c(-n2nc(C)cc2C)nc(CC)cc1=O the results were NPYLR7 agonist 1 and NPYLR7 agonist max-min 0.
`Cc1cc(C)c(OCC(=O)Nc2nnn(C)n2)c(Br)c1` gave NPYLR7 agonist 7 and NPYLR7 agonist max-min 0.
`COc1ccc(S(=O)(=O)NCc2ccco2)cc1C` gave NPYLR7 agonist 8 and NPYLR7 agonist max-min 7.
`O=c1ccc2cc(S(=O)(=O)Nc3ccccc3F)ccc2o1` gave NPYLR7 agonist -1 and NPYLR7 agonist max-min 0.

Screening results: PubChem BioAssay, Fisher Drug Discovery Resource Center
